D2 PAM: Beta-Arrestin HTS for Positive Allosteric Modulators of the Human D2 Dopamine Receptor: Potentiators; AID 624464, 2012; potentiation, % (test concentration not listed); 0.23% of 360,000 active; D(2) dopamine receptor (Homo sapiens), P14416; DiscoveRx D2 beta-arrestin cells, luminescence, 90 min; 100% = 57 uM dopamine signal; active = potentiation of 50% or more; inconclusive = 30% to 50%; inactive = 30% or less;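 further: compound concentration not given in the record; tested on top of an EC20 dose of dopamine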
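D2 cells co-treated with compound plus 50 nM dopamine (EC20) for 90 min at 37 deg C to detect potentiation. Beta-arrestin recruitment was read as enzyme-fragment luminescence after 1 h at ambient temperature. Full response was set by 57 uM dopamine.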
gsp agonist: qHTS for Agonist of gsp, the Etiologic Mutation Responsible for Fibrous Dysplasia/McCune-Albright Syndrome: qHTS; 0.13% of 340,000 active; gsp mutant cells, cAMP HTRF, 30 min; control for the full effect not named in the record; Potency, µM (doses to about 76.9 µM), for inactives: at the highest dose activation (cAMP increase), most hits filed as activators; active = well fitted activation curve with a large enough effect; inconclusive = small, poorly fitted or top-dose-only effect, or another doubt; inactive = no such curve, though single readings can be large or run the other way; cell line not stated here;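 further: phosphodiesterase inhibitor Ro 20-1724 added with compounds to block cAMP breakdown; potency means the concentration at half of the fitted maximal effect; nearly all actives have a fitted effect of over 60% in size; about a fifth of the inactives were tested at one dose only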
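Cells in DMEM/10% FBS with G418 were pretreated with compounds in DMSO plus […] (300 uM stock) for 30 min at 37C. cAMP was measured by HTRF (cAMP-d2 plus anti-cAMP antibody-K) after 30 min at room temperature.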
CtBP-E1A inh: qHTS Assay for Inhibitors of the CtBP/E1A Interaction; CtBP / adenovirus E1A interaction (AlphaScreen); AlphaScreen GST-E1A/His-CtBP binding, 1536-well; stronger effect = lower value; control for the full effect not named in the record; activity change, % (concentration not given with the values); 0.49% of 340,000 active; AID 651724, 2012; in the data active means activity change below about -65%; inconclusive means about -30% to -65%; inactive means above about -30%; further: on the % scale 0 is the no-effect control and ±100 the full control effect
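Steps: dispense buffer (Tris pH 8.0, NaCl 300 mM, TCEP 1 mM, BSA, Tween 20); add 5X protein mix (GST-E1A, His-CtBP, 125 nM each); pin 23 nL compound; 2 h at 37 °C, dark; add 5X beads (50 ug/mL); 1 h; read.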
gsp antagonist: qHTS for Antagonists of gsp, the Etiologic Mutation Responsible for Fibrous Dysplasia/McCune-Albright Syndrome: qHTS. gsp-mutant cells, cAMP HTRF, 30 min; control for the full effect not named in the record. Potency, µM (series often up to 76.9 µM), for the others: top-dose activity change, negative = inhibition, hits mostly inhibitors. 0.4% of 340,000 active; active = falling curve of any shape with a large fitted effect; inconclusive = falling curve, mostly with a smaller effect; inactive = flat or rising curve; cell line not stated here;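 further: intracellular cAMP measured with PDE inhibitor Ro 20-1724 present during compound exposure; potency means the concentration at half of the fitted maximal effect; on the % scale 0 is the no-effect control and ±100 the full control effect; nearly all actives have a fitted effect of over 65% in size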
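Cells in G418 medium, seeded 16-24 h, 37C; buffer exchange to DPBS + 1 mM CaCl2, 0.5 mM MgCl2, 0.05% BSA; cpds in DMSO + […] (300 uM stock), 30 min 37C; HTRF cAMP detection.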
D2 agonist: Beta-Arrestin HTS for Positive Allosteric Modulators of the Human D2 Dopamine Receptor: Agonists; 0.084% of 360,000 active; activation, % (no concentration beside the values); DiscoveRx PathHunter D2 beta-arrestin, luminescence, 90 min; 100% = 57 uM dopamine signal; in the data active = activation above about 40%; inconclusive = about 15% to 40%; inactive = below about 15%; further: compound concentration not given in the record; the text of the record calls up to 30% inactive
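Agonist mode: compounds alone added to overnight-plated D2 PathHunter cells for 90 min at 37 C, with 57 uM final dopamine (EC100) defining full response. Beta-arrestin recruitment detected by chemiluminescent reagent, read after 1 h at ambient temperature.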
Six1-Eya2 inh: qHTS Assay for Inhibitors of the Six1/Eya2 Interaction | AlphaScreen GST-Six1/His-Eya2 binding, biochemical; stronger effect = lower value; control for the full effect not named in the record | activity change, % (test concentration not listed) | 0.56% of 360,000 active | Homeobox protein SIX1 (Homo sapiens) + Protein phosphatase EYA2 (Homo sapiens), …; in the data active = activity change below about -65%; inconclusive = about -30% to -65%; inactive = above about -30%; further: on the % scale 0 is the no-effect control and ±100 the full control effect; compound concentration not given in the record
Target sequence (O00167 whole entry, looked up): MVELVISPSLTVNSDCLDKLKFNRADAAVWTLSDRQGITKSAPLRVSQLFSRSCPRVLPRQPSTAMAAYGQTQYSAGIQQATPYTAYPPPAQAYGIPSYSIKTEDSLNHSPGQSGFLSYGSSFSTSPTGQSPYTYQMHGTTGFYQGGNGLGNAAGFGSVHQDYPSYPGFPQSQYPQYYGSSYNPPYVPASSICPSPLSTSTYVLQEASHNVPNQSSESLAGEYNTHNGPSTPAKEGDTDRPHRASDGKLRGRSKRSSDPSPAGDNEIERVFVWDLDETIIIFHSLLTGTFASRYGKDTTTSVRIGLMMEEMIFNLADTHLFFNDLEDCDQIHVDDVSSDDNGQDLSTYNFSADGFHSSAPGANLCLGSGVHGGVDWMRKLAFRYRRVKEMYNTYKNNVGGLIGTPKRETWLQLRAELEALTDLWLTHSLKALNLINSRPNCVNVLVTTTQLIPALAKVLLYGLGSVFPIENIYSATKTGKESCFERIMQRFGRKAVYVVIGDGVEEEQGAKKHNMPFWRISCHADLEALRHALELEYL
Target sequence (Q15475 whole entry, looked up): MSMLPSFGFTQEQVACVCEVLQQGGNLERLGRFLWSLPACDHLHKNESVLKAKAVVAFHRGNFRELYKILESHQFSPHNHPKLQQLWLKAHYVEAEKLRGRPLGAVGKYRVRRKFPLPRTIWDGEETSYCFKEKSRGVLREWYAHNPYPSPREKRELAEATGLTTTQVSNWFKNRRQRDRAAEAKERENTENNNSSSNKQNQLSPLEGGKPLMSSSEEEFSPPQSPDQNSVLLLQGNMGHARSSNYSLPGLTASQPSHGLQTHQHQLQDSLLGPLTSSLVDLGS
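Homogeneous AlphaScreen proximity assay pairing GST-Six1 with His-tagged Eya2 (added as 5X mix: 250 nM and 500 nM) in 50 mM Tris pH 8.0, 300 mM NaCl, 1 mM TCEP. Glutathione donor and nickel acceptor beads; 1 h, 37 °C, dark.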
The depositor's hits bear a star; u = inconclusive; x = no result given; [ ] = another dose, or the depositor's remark.

item	molecule	D2 PAM	gsp agonist	CtBP-E1A inh	gsp antagonist	D2 agonist	Six1-Eya2 inh
1	Cc1cc(C)nc(SCCC(=O)Nc2ccc(F)cc2)n1	-11	-6%[15.4 µM]	-11	7%	2.8	2
2	COc1ccc(/C=N/Nc2ncc(C(F)(F)F)cc2Cl)c(OC)c1OC	-10	23%	-10	9%	-0.3	2
3	CC(C)CC(=O)NNC(=O)c1ccc(Cl)cc1	-1	-39%[inhibitor]	-20	4%	-2.7	-2
4	CCCCC(O)(CCCC)C(=O)NN(C(=O)CCl)c1ccccc1	-9	15%	-1	-2%	1.8	2
5	O=C(Nn1c(-c2ccc(F)cc2)nc2ccccc2c1=O)C1CCCCC1	-9	0%	2	-2%	0.9	18
6	Cc1ccc2nc(-c3ccccc3O)c(Nc3ccc4c(c3)OCCO4)n2c1	19	u	5	-6%	7.0	-25
7	CCSc1nsc(NC(=O)Nc2cccc(C(C)=O)c2)n1	-15	-15%	1	25µM*	5.0	4
8	CC(=O)Nc1c(C(=O)N2CCCCCC2)cnn1-c1ccccc1Cl	-9	4%	3	-2%	-1.0	-2
9	COc1cc(C2/C(=C(\O)c3ccc4c(c3)OCCO4)C(=O)C(=O)N2CCN2CCOCC2)cc(OC)c1OC (stereo not given)	-12	-5%[15.4 µM]	-9	6%	-3.9	11
10	CN(C)c1cc[n+](Cc2c(Cl)cccc2Cl)cc1	-3	0%	-8	-11%	-2.5	4
11	COC(=O)CNC(=O)Cn1nc(C)c([N+](=O)[O-])c1C	-5	10%[15.4 µM]	-4	2%	-7.0	14
12	CC(=O)c1c(C)[nH]c(C(=O)OCC(=O)Nc2sc3c(c2C#N)CCC(C)C3)c1C (stereo not given)	-6	7%[15.4 µM]	-10	-21%	-1.7	-27
13	Cc1cccc(C)c1NC(=O)c1ccc(-c2cc(F)ccc2F)o1	-4	x	-9	x	1.5	-13
14	O=C(CNc1ccccc1)N/N=C/c1cn(-c2ccccc2)nc1-c1ccccc1	-10	9%	-2	7%	0.5	4
15	C#CCOCCOCCOCCNc1nc(N2CCN(C(=O)CCCCCCCCCCNC(=O)[C@H](CO)n3cc(CCCSC)nn3)CC2)nc(N2CCN(C(=O)CCCCCCCCCCNC(=O)[C@H](CO)n3cc(CCCSC)nn3)CC2)n1	-11	x	4	-7%	0.0	8
16	CCN(CC1CCCO1)C(=O)CCc1nnc(CCc2ccccc2)o1 (stereo not given)	-9	-4%	2	x	-2.2	5
17	CN1C(=O)[C@H]2[C@@H](/C=C/c3ccccc3)N3C(=O)CN(Cc4ccccn4)C(=O)[C@@]3(Cc3ccccc3)[C@H]2C1=O	-4	x	5	-2%	0.3	1
18	COc1ccc(C[C@H]2CN3C(=NC[C@@H]3Cc3ccccc3)N2CCNC(=O)c2ccc(C)c(Br)c2)cc1	-32	30%	-13	5%	-0.4	-12
19	NC1=C(Cl)C(=O)c2ccccc2C1=O	51*	u	-1	-14%	10	u
20	O=C(COc1cc(Cl)c(Cl)cc1Cl)NC(=O)Nc1ccc2c(c1)OCCO2	-13	-17%	2	4%	2.0	3
21	COC(C(=O)Nc1ccc(Cl)cc1C)c1ccccc1 (stereo not given)	-10	-61%[inhibitor]	2	-7%	-1.9	4
22	CCOC(=O)C(=Cc1ccc(OCc2ccc([N+](=O)[O-])cc2)c(OC)c1)C(=O)OCC	-11	-18%	-2	5%	-6.2	3
23	CCOC(=O)COc1nc(C)c(Br)c(OC)n1	-2	-21%	0	0%	1.2	3
24	O=C(C(=O)N1CCCC1)c1c[nH]c2ccccc12	3	u	8	16%	-1.5	5

Exported screen by screen: part of the list above
(21) COC(C(=O)Nc1ccc(Cl)cc1C)c1ccccc1 (stereo not given)
(22) CCOC(=O)C(=Cc1ccc(OCc2ccc([N+](=O)[O-])cc2)c(OC)c1)C(=O)OCC
(23) CCOC(=O)COc1nc(C)c(Br)c(OC)n1
(24) O=C(C(=O)N1CCCC1)c1c[nH]c2ccccc12

screen / no.	21	22	23	24
D2 PAM	-10	-11	-2	3
gsp agonist	-61%[inhibitor]	-18%	-21%	u
CtBP-E1A inh	2	-2	0	8
gsp antagonist	-7%	5%	0%	16%
D2 agonist	-1.9	-6.2	1.2	-1.5
Six1-Eya2 inh	4	3	3	5

Continuation.
item	molecule	D2 PAM	gsp agonist	CtBP-E1A inh	gsp antagonist	D2 agonist	Six1-Eya2 inh
25	Cc1cc(=O)oc2c(C)c(OCC(=O)NCC3CCC(C(=O)O)CC3)ccc12 (stereo not given)	4	x	4	7%	-3.9	6
26	S=C1NCN(Cc2ccccc2)CN1	-4	-21%	0	13%	-0.3	1
27	Cc1cccc2sc(NC(=O)Cn3c(C)csc3=O)nc12	-21	2%[15.4 µM]	-11	-3%	0.5	-2
28	CCOC(=O)/C(=C/Nc1ccc(F)c(F)c1)[N+](=O)[O-]	-2	7%	-4	-6%	2.2	6
29	CCOc1cc(NC(=S)NCCOC)c(OCC)cc1NC(=O)c1cccs1	-5	-35%[inhibitor]	-13	-17%	-2.6	-7
30	CC(=O)c1c(O)cc(C(C)C)n(-c2ccccc2)c1=O	3	u	-4	13%	0.3	-1
31	Cc1cccc(/N=C/c2c(O)[nH]c3ccccc23)n1	-12	1%	-8	-1%	-4.0	-6
32	CSc1ccccc1NC(=S)NC1CCCC1	-10	12%	1	9%	-3.2	2
33	Cc1ccc(/C=N/NC(=O)Cc2cccn2C)s1	5	-98%[inhibitor]	1	4%	-2.0	-5
34	CC(C)(C)Cc1c(-c2ccc(Cl)cc2)nc2ccc(Br)cn12	4	-39%[inhibitor]	8	x	-6.9	19
35	CCOC(=O)C1=C(C)OC(N)=C(C#N)C1c1cc2cc(C)ccc2nc1N1CCCCC1 (stereo not given)	-8	u	-6	-9%	-3.1	-1
36	Cc1ccc(Cc2c(-c3ccc(Cl)cc3)nc3ccc(Cl)cn23)cc1	0	-1%	0	x	-7.9	0

Later entries
Each structure is followed by: D2 PAM | gsp agonist | CtBP-E1A inh | gsp antagonist | D2 agonist | Six1-Eya2 inh
(37) COC(=O)Cn1ncn2cccc2c1=O
 : -2 | -16% | 9 | 11% | -0.9 | 6
(38) COc1cccc(NC(=O)Nc2ccc3c(c2)CCC3)c1
 : -10 | 14% | -7 | -16% | 2.1 | -8
(39) COCCn1c(SCC(=O)NC(=O)NC2CCCCC2)nc2ccccc2c1=O
 : 1 | -46%[inhibitor] | 5 | u | -2.0 | 2
(40) CCN(CC)CCC/C(=N\O)C(O)(c1ccccc1)c1ccccc1
 : -10 | 19% | -2 | 15% | -1.0 | 35
(41) CCCS(=O)(=O)c1c(S(=O)(=O)CCC)c2cnccn2c1C(=O)c1ccc(CC)cc1
 : -5 | 2% | 6 | -2% | 1.3 | -1
(42) COc1ccc(S(=O)(=O)N2CCCCC2c2cc(C(=O)NCc3ccc(F)cc3)no2)cc1 (stereo not given)
 : 2 | x | 1 | x | -5.3 | -6
(43) CCn1c(SCC(=O)OC(C)C)nnc1-c1ccccc1OC
 : -11 | 21% | 0 | -14% | u | 6
(44) Cc1nn(C)c(C(=O)NNC(=S)Nc2ccc(F)cc2)c1[N+](=O)[O-]
 : -18 | -12% | 3 | -9% | -7.2 | 1
(45) COCCN1C[C@@H](CO)O[C@@H](n2cnc3c(NCCO)ncnc32)C1
 : 3 | x | 27 | x | -4.3 | 19
(46) O=C(NCc1ccccc1)C1(c2cccc(F)c2)CCCC1
 : 3 | -17% | x | -6% | 3.1 | 26
(47) CN1CCN(/N=C/c2ccc(OCc3ccccc3)cc2)CC1
 : -23 | 13% | x | 12% | -2.8 | -22
(48) FC(F)(F)Sc1ccc(NC(=S)NCc2ccccc2)cc1
 : -20 | 0% | x | -19% | -0.5 | 8
(49) O=C(NCCS(=O)(=O)N1CCN(c2ccccc2F)CC1)c1ccco1
 : 10 | -9% | 5 | 9% | -1.0 | -3
(50) CC1CCCC(NC(=O)COC(=O)COc2ccccc2Cl)C1C (stereo not given)
 : -55 | 23%[15.4 µM] | -10 | x | 1.0 | 0
(51) CC(C)(C)S(=O)(=O)N1Cc2cc(=O)n(Cc3ccccc3)c(CCO)c2[C@H]1CCO
 : x | x | -24 | 3% | -2.0 | 0
(52) COc1ccc(N(CC(=O)NCCSc2ccccn2)S(=O)(=O)c2ccccc2)c(OC)c1
 : -11 | 4%[15.4 µM] | -15 | x | -4.5 | 5
(53) CCOC(=O)C1(CCOc2ccccc2)CCN(Cc2cccc3c2OCO3)CC1
 : -16 | 0%[15.4 µM] | -18 | -14% | -5.6 | -17
(54) COC(=O)C1Cc2ccccc2CN1S(=O)(=O)c1ccc(F)cc1 (stereo not given)
 : -6 | 28%[15.4 µM] | 6 | -2% | -3.5 | -9
(55) COc1ccc2c(c1)C1=NN(/C(C)=C/C(C)=O)C(c3cccc(F)c3)C1CC2 (stereo not given)
 : 2 | -3%[15.4 µM] | 0 | -22% | 3.3 | -15
(56) CC1CC(C)CN(C(=O)c2cccc(S(=O)(=O)Nc3cc(C(F)(F)F)ccc3Cl)c2)C1 (stereo not given)
 : -2 | 15% | -13 | -11% | 4.2 | -6
(57) CC(CN1CCN(C)CC1)OC(=O)c1cccc(Cl)c1 (stereo not given)
 : 3 | 14%[15.4 µM] | 3 | 6% | -1.5 | 0
(58) Cc1ccc(S(=O)(=O)N(C(=O)c2ccncc2)c2ccc(OC(=O)c3ccncc3)cc2)c(C)c1
 : -3 | -2% | -12 | -2% | -1.4 | -6
(59) O=C(CSc1nn(-c2ccc(F)cc2)c(=S)s1)N1CCN(C(=O)c2ccco2)CC1
 : -10 | -58%[inhibitor] | 41 | -1% | -0.9 | 14
